# SARS PLP yeast – blocks SARS-CoV papain-like protease in a yeast assay; S. cerevisiae expressing SARS-CoV PLpro, growth rescue; control for the full effect not named in the record; Potency, µM (highest dose often 32.9 µM), without a hit: at the top dose activity, positive = growth rescue; actives 0.19% (n = 330,000); AID 485353; also: 0% is about no effect; nearly all actives have a fitted effect of over 55% in size; growth read by luminescence after 48 h
# Cruzain inh Det – blocks cruzain activity in presence of Triton detergent; Potency, µM, without a hit: max response, negative = inhibition, most hits filed as inhibitors; purified cruzain, Z-FR-AMC fluorescence, 0.01% Triton; actives 0.43% (n = 200,000); P25779; AID 1478; active = well fitted curve in the direction sought with a large enough effect; inconclusive = small, poorly fitted or top-dose-only effect, or another doubt; inactive = no such curve, though single readings can be large; an effect the other way counts as inactive or inconclusive;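 also: plate controls were neutral wells for no effect and buffer without enzyme for full effect; nearly all actives have a fitted effect of over 40% in size; top concentration of the series not given in the record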
# Target sequence (P25779 123-467 limits assumed): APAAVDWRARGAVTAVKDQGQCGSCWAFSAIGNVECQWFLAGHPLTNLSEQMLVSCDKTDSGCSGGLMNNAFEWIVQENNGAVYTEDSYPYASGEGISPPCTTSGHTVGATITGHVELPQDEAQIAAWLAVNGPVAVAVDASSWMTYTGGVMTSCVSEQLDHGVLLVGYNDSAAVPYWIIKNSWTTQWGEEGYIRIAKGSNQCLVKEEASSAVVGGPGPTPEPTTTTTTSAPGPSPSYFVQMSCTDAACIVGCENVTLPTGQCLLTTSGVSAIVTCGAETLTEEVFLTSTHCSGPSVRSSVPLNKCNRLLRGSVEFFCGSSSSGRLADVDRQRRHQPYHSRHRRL
#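 15 min RT preincubation of 1.5 nM cruzain with compound, then 2 uM Z-FR-AMC added; kinetic AMC fluorescence, 60 s delta. Triton X-100 0.01%, pH 5.5.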
# Cruzain inh noDet – cruzain (T. cruzi) inhibition without detergent; purified cruzain, Z-FR-AMC fluorescence, no detergent; Potency, µM, for the others: max response, negative = inhibition, actives largely listed as inhibitors; actives 2.3% (n = 200,000); active = well fitted curve in the direction sought with a large enough effect; inconclusive = small, poorly fitted or top-dose-only effect, or another doubt; inactive = no such curve, though single readings can be large; an effect the other way counts as inactive or inconclusive;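 also: plate controls were enzyme without inhibitor for no effect and buffer without enzyme for full effect; nearly all actives have a fitted effect of over 40% in size; top concentration of the series not given in the record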
#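 Detergent-free condition (0.00005% Triton X-100) in acetate buffer pH 5.5 with DTT. 1.5 nM enzyme and compound were pre-mixed 15 min, then 2 uM Z-FR-AMC substrate added; reaction progress from fluorescence change between first and third reads (60 s).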
# Marburg entry inh – Marburg virus entry inhibition. Marburg virus pseudotyped entry inhibition, cell reporter; control for the full effect not named in the record; about a third of the inactives were read at about 46 µM. Potency, µM (top dose mostly 37.8 µM), for the others: at the top dose activity change, negative = inhibition, hits mostly inhibitors. actives 1.8% (n = 300,000); active = well fitted inhibition curve with a large enough effect; inconclusive = small, poorly fitted or top-dose-only effect, or effect the other way; inactive = flat fitted curve, though single readings scatter; tested in HEK293 cells; about a fifth of its hits are not listed in these tables; also: % is scaled to controls: 0 for no effect and ±100 for the full control effect; luciferase read-out
# RE007 growth inh – less growth of the S. pombe RE007 Vpr strain; Potency, µM (top dose mostly 92.2 µM), for inactives: at the highest dose activity change, negative = less growth; actives 0.21% (n = 360,000); S. pombe RE007 Vpr strain, BacTiter-Glo ATP luminescence, 24 h; control for the full effect not named in the record; AID 651644; active = well fitted falling curve with a large enough effect; inconclusive = small, poorly fitted or top-dose-only effect; inactive = no such curve, though single readings can be large or run the other way;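 also: % is scaled to controls: 0 for no effect and ±100 for the full control effect; nearly all actives have a fitted effect of over 50% in size; the assay follows cell death caused by Vpr and the record does not say whether a fall means rescue or toxicity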
#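 Fission yeast strain RE007, carrying one chromosomally integrated HIV-1 vpr copy, was seeded at OD 0.01 in PMG+AL medium with 23 nL pinned compound. After 24 h at 30 °C and 99% humidity, viability was read by BacTiter-Glo luminescence.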
# NS1 inh – inhibitors of influenza NS1 protein function; actives 0.4% (n = 270,000); S. cerevisiae slowed by influenza A NS1, growth recovery by OD600; Potency, µM (highest dose often 46.1 µM), for inactives: at the top dose activity, positive = more growth; also: actives are rising curves; nearly all actives have a fitted effect of over 50% in size
#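 Read-out: OD600 growth recovery of NS1-expressing budding yeast. Cells grown overnight at 30C in -URA glucose medium, washed, resuspended and diluted 1:100 in 2% galactose assay medium, pH 6.0. Same strain lacking NS1 served as positive control.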
# StopGo reporter – lowers the luciferase signal of an FMDV 2A StopGo reporter; human cells with a luciferase reporter of 2A StopGo recoding; control for the full effect not named in the record; Potency, µM (doses to about 57.9 µM), for inactives: at the highest dose signal change, negative = less light; actives 1.2% (n = 410,000); active = well fitted falling curve with a large enough effect; inconclusive = small, poorly fitted or top-dose-only effect; inactive = no such curve, though single readings can be large or run the other way; tested in HEK293T cells; also: % is scaled to controls: 0 for no effect and ±100 for the full control effect; nearly all actives have a fitted effect of over 45% in size; luciferase light after 4 h
# LASV entry inh – blocks Lassa virus binding to or entry into cells; Potency, µM (titrated, usually from 37.9 µM), without a hit: at the highest dose activity change, negative = inhibition, most hits filed as inhibitors; Lassa virus pseudotype entry inhibition, cell reporter; control for the full effect not named in the record; actives 1.2% (n = 300,000); active means well fitted inhibition curve with a large enough effect; inconclusive means small, poorly fitted or top-dose-only effect, or effect the other way; inactive means flat fitted curve, though single readings scatter; tested in HEK293 cells; also: % is scaled to controls: 0 for no effect and ±100 for the full control effect; nearly all actives have a fitted effect of over 50% in size; luciferase read-out
# Starred values were filed as active, the others as inactive; u = inconclusive; x = not tested or not shown; & = joins results of further samples; ! = a repeat was not active; [ ] = remark or other dose. Unless noted, calls follow the shape of the dose curve; as a rule, active means well fitted rising curve with a large enough effect; inconclusive means small, poorly fitted or top-dose-only effect; inactive means no such curve, though single readings can be large or run the other way. Potency is read from the fitted curve at half-maximal effect.
# Values in the order – LASV entry inh, StopGo reporter, NS1 inh, RE007 growth inh, Cruzain inh Det, Marburg entry inh, SARS PLP yeast, Cruzain inh noDet
CC(OC(=O)c1nsc(Cl)c1Cl)C(=O)NC1CCCCC1 (configuration not stated)
→ 11%[46.1 µM], -8%, 1%, 3%, x, 4%[46.1 µM], -1%, x
COc1cc(/C=N/NS(=O)(=O)c2ccc3ccccc3c2)ccc1OCCN1CCOCC1
→ 13%, 32%[activator], -6%, 4%, -4.9%, u, 5%, 12%
Cc1cccc2c3c([nH]c12)CCNC3
→ 0%, 1%, 6%, 0%, x, 9%, 1%, x
CCOC(=O)C(=CNc1ccc(Oc2cccnc2)nc1)C(=O)OCC
→ x, 6%, -2%, 16%, x, x, 1%, x
CCOc1cc(CNCCc2ccc(S(N)(=O)=O)cc2)ccc1OCC(=O)NC(C)(C)C
→ 1%, 0%, 5%, 2%, -1.0%, u, x, 7%
O=C(Nc1nnc(CCOCCOCCc2nnc(NC(=O)c3ccco3)s2)s1)c1ccco1
→ 0%, x, 8%, -3%, -0.6%, -2%, 13%, 4%
Cc1ccc(C(Sc2ccccc2)C(Cn2cncn2)C(=O)c2ccccc2)cc1 (configuration not stated)
→ u, u, -2%, -13%, -3.9%, -24%, -18%, 4%
Nc1c(C(=O)NCc2ccco2)sc2nc(N3CCOCC3)c3c(c12)CCCC3
→ -1%, 0%, 25µM*, -14%, -2.0%, -18%&-18%[46.1 µM], 0%, u
CCOCCCn1c(SCC(=O)Nc2ccc(C(C)C)cc2)nc2c(sc3ccccc32)c1=O
→ x, -5%, x, x, 2.9%, x, x, -1%
O=C(CSc1n[nH]c(-c2ccccc2)n1)NC1CCCCC1
→ x, -9%, -1%, 6%, x, x, 2%, x
CCN(CC(=O)Nc1ccc2c(c1)OCCO2)C(=O)c1cc(S(=O)(=O)N2CCOCC2)ccc1F
→ 16%, -10%, x, 1%, x, 10%, -6%, x
O=C1C2CC(O)CN2C(=S)N1Cc1ccccc1 (configuration not stated)
→ 21%, -12%, 8%, -1%, x, 4%, 0%, x
O=C(c1ccc(NC2=NC3CS(=O)(=O)CC3S2)cc1)N1CCN(c2ccc(F)cc2)CC1 (configuration not stated)
→ x, 10%, -2%, -2%, x, x, -5%, x
N#CCCn1cc(C(N)=O)c(-c2cccs2)n1
→ x, -2%, 8%, 30%, x, x, -1%, x
COc1ccc(NC(=O)CSC2=Nc3ccccc3C3=NC(CC(=O)NCCc4ccccc4)C(=O)N23)cc1 (configuration not stated)
→ 13%[46.1 µM], 8%, x, x, -4.4%, x, x, 15%
Fc1ccccc1COc1ccc(Br)cc1CNCc1ccncc1
→ -19%, 32µM*, -136%, u, -0.7%, u, -31%, -9%
COC(=O)c1ccccc1NC(=O)CSc1nnc(-c2ccncc2)o1
→ 1%, -19%, 5%, 20%, 3.7%, 2%, 1%, -3%
C=CCOC(=O)C1=C[C@@H](c2cn(C(C)=O)c3ccccc23)C[C@@H](OCCCCO)O1
→ x, -9%, -2%, 14%, x, x, -2%, x
O=C(CN1C(=O)COc2ccccc21)N1CCc2ccccc21
→ -17%, -16%, 7%, -7%, -3.7%, u, 4%, -2%
COc1ccc(-c2nn(-c3ccccc3)cc2/C=N/N=C(N)N)cc1OC
→ u, u, 10%, 5%, -2.0%, 10µM*, 5%, 3%
COc1ccc(N(C(=O)c2snc(C(N)=O)c2N)C(C(=O)NCc2ccccc2)c2ccc(O)cc2)cc1OC (configuration not stated)
→ x, -10%, -11%, 27%, x, 7%[46.1 µM], -4%, x
C/C(=N/Nc1ccccc1[N+](=O)[O-])c1ccc([N+](=O)[O-])cc1
→ x, u, -1%, 3%, x, x, -1%, x
Cc1ccc(NS(=O)(=O)c2cccc(C(=O)N/N=C/c3ccc4c(c3)OCCO4)c2)c(C)c1
→ 4%, 1%, 37%, -9%, -13%, -4%, 9%, 6.3µM*
CC(C)Oc1ccc(CC2CCC(=O)N(C)C2=O)cc1 (configuration not stated)
→ 7%, -8%, -6%, 10%, -1.3%, 5%, -24%, -2%
C/C(=N\NC(=O)COc1ccc(C)cc1[N+](=O)[O-])c1cccs1
→ 8%, 12%, x, u, x, 29%[46.1 µM], 0%, x
NC(=O)c1nsc(C(=O)N(c2cccc(F)c2)C(C(=O)NCC2CCCO2)c2c[nH]c3ccccc23)c1N (configuration not stated)
→ u, 9%, -7%, 7%, x, u, -3%, x
COc1cc(/C=C(/C#N)c2ccccc2)ccc1Oc1ccc([N+](=O)[O-])cn1
→ -5%, u, 22%, -15%, -1.4%, -2%, -3%, u
C/C(=N\Nc1nccnc1Cl)c1ccc(Cl)c(Cl)c1
→ u, 35%[activator], -14%, -5%, x, 3%, -3%, x
COc1cc2c(c(OC)c1OC)C(=O)C(=Cc1ccccc1)O2
→ u, u, x, -17%, x, -8%, x, x
S=C(NCCc1ccccn1)Nc1ccccc1Cl
→ x, 50%[activator], 3%, 23%, x, x, 0%, x

# Brought forward from above: 2 entries; new compounds follow.
# Values in the order – LASV entry inh, StopGo reporter, NS1 inh, RE007 growth inh, Cruzain inh Det, Marburg entry inh, SARS PLP yeast, Cruzain inh noDet
COc1cc2c(c(OC)c1OC)C(=O)C(=Cc1ccccc1)O2
→ u, u, x, -17%, x, -8%, x, x
S=C(NCCc1ccccn1)Nc1ccccc1Cl
→ x, 50%[activator], 3%, 23%, x, x, 0%, x
CC(=O)Nc1nc(=S)ss1
→ 2%, -11%, -40%, -11%, -1.1%, 12%, 8%, 2%
O=C(COc1ccc(Br)cc1)Nc1ccncc1
→ 12%, -9%, -16%, -22%, -3.8%, -4%, -12%, -10%
Cc1ccc(C(=O)NCc2ccccn2)c(Cl)c1
→ u, 64%[activator], -8%, 0%, -0.1%, 18%, 7%, -1%
O=C(c1n[nH]c2c1CCCC2)n1ccnc1
→ x, x, 4%, x, 0.7%, 1%, 1%, 5%
COc1ccccc1CNC(=O)COC(=O)CCN=C1NS(=O)(=O)c2ccccc21
→ -1%, -4%, x, 5%, x, -11%, 6%, x
Cn1c(=O)c2[nH]c(NN=Cc3ccc(F)cc3)nc2n(C)c1=O
→ 3%[46.1 µM], -11%, x, 4%, x, -1%[46.1 µM], x, x
COc1ccc(C)cc1S(=O)(=O)N1CCN(C(=O)c2ncoc2-c2ccccc2F)CC1
→ 3%, -5%, -49%, 1%, x, u, 2%, x
CC(C)C(=O)NCc1cc(-c2ccc(Cl)cc2)no1
→ 22%[46.1 µM], 0%, 0%, 4%, x, 13%[46.1 µM], 0%, x
CCOC(=O)c1cnc2ccc(OC)cc2c1NCCc1ccc(OC)c(OC)c1
→ u, 18µM*!, 0%, 2%, -9.6%&-3.2%, u, 18%, -8%&7%
CCn1c(SCC(=O)Nc2cc(Cl)ccc2OC)nc2c([nH]c3ccccc32)c1=O
→ 0%[46.1 µM], -24%, x, x, -0.1%, x, x, -5%
COC(=O)c1ccc(NC(=O)CSc2nc(=O)cc(N)n2-c2ccccc2)cc1
→ x, -1%, -1%, 0%, x, x, 0%, x
CN(C)CCC(O)(c1ccccc1)c1ccccc1Cl (configuration not stated)
→ u, -4%, x, 4%, x, -20%, x, x
Cc1c(NC(=O)c2ccc(N(Cc3ccccc3)S(C)(=O)=O)cc2)c(=O)n(-c2ccccc2)n1C
→ 23%[46.1 µM], -10%, -2%, -16%, x, u, 0%, x
COc1ccc(CCNCc2csc3nc4ccccc4n23)cc1OC
→ u, u, -17%, -3%, 7.8%, u, 1%, 9%
O=C(NCc1ccc2c(c1)OCO2)c1ccc(C2SCC(=O)N2Cc2ccco2)cc1 (configuration not stated)
→ -8%, 0%, u, 13%, 1.2%, 25%, 2%, u
OCCNCc1cccc(-c2ccccc2)c1O
→ 0%[46.1 µM], 23%, x, 2%, x, 11%[46.1 µM], x, x
O=C(COc1ccc(Br)cc1)Nc1cccc2cccnc12
→ 24%[46.1 µM], 6%, x, x, -1.1%, x, x, -3%
CCn1ncc(Br)c1C(=O)Nc1ccccc1C(=O)OC
→ 8%, 1%, x, -15%, x, 1%, x, x
Cc1ccnc(NCn2nnc3ccccc32)c1
→ 4%, x, -1%, -6%, 6.2%, 18%, -1%, 2%
O=C(N/N=C/c1ccc([N+](=O)[O-])o1)C(=O)Nc1ccc(C(=O)O)cc1
→ x, -20%, -1%, 8%, x, x, 1%, x
CCN1CCN(CC(=O)Nc2ccc(N(C)C)cc2)CC1
→ 12%, -5%, 9%, 3%, x, u, -1%, x
CCCCCCCN(C(=O)CCl)c1ccccc1C
→ 2%, u, 8%, 2%, -4.3%, -1%, -15%, 7%
CCN(CC(=O)N1CCCCCC1)S(=O)(=O)c1ccc(C)cc1
→ x, 11%, 1%, 0%, x, x, -4%, x
CCOC(=O)C(=O)Nc1ncc(Cl)s1
→ 0%[46.1 µM], 0%, 7%, 2%, x, -2%[46.1 µM], -2%, x
c1ccc(CCN2CCCCC2)nc1
→ 20%[46.1 µM], 4%, x, -5%, x, -1%[46.1 µM], x, x
COc1ccccc1NC(=O)c1ccc(CSc2ccccc2)o1
→ -3%, -7%, -17%, 5%, x, 3%, -6%, x
COC(=O)c1[nH]c2ccccc2c1NS(=O)(=O)c1ccc(OC)cc1OC
→ -3%, 27%, -11%, -9%, 1.9%, 12%&12%, -3%, -4%
O=C(O)c1ccc(-n2c(/C=C/c3ccccc3)nc3ccccc3c2=O)cc1
→ x, -27%, 21%, 7%, x, x, 1%, x
COc1ccc(C(=O)N/C(=C\c2ccccc2)C(=O)NCc2cccnc2)cc1
→ -10%[46.1 µM], 31%[activator], 17%, -4%, x, -7%[46.1 µM], 1%, x
Cc1ccc(N(C(=O)c2csnn2)C(C(=O)NC2CCCCC2)c2ccccn2)cc1 (configuration not stated)
→ u, 12%, 14%, 1%, x, u, 1%, x
Cc1cc(NCc2ccco2)nc2cc(O)ccc12
→ x, -22%, -4%, -8%, -9.4%, x, 18%, -22%
